Compound activity (PubChem)
VACV Venus inh – vaccinia inhibition (Venus reporter); Vaccinia virus Venus reporter expression, fluorescence; Potency, µM (highest dose often 36.5 µM), for inactives: top-dose activity change, negative = inhibition, usual class: inhibitors; 330,000 compounds, 0.46% hits; AID 720580; active means well fitted inhibition curve with a large enough effect; inconclusive means small, poorly fitted or top-dose-only effect; inactive means no such curve, though single readings can be large or run the other way; tested in A549 cells; also: nearly all actives have a fitted effect of over 30% in size; inactives centre near -10
Vaccinia mCherry – vaccinia inhibition (mCherry reporter); Vaccinia virus mCherry reporter infection, fluorescence; about a quarter of the inactives have no number; Potency, µM (doses to about 36.5 µM), without a hit: at the highest dose activity change, negative = inhibition, most hits filed as inhibitors; 310,000 compounds, 0.63% hits; AID 720579; active = well fitted inhibition curve with a large enough effect; inconclusive = small, poorly fitted or top-dose-only effect; inactive = no such curve, though single readings can be large or run the other way; tested in A549 cells; also: nearly all actives have a fitted effect of over 35% in size; inactives centre near -10
Active calls of the source: *; i = inactive; ? = inconclusive; / = not tested or not shown; & = joins results of further samples; [ ] = dose if it differs, or a comment. % is scaled to controls: 0 for no effect and ±100 for the full control effect; potency is read from the fitted curve at half-maximal effect.

SMILES	VACV Venus inh	Vaccinia mCherry
CCCCN(C=O)c1c(CC)nc2c(OCCC)cccn12	-4%	-8%
Cc1ccc(C)c(NC(=O)/C(C#N)=C/c2ccc[nH]2)c1	-14%	i
O=C1c2ccccc2C(=O)C1c1ccc(Cl)cc1	-7%	-15%
Cn1nnnc1SCC(=O)Nc1nc(-c2ccccc2)c(-c2ccccc2)o1	-30%	/
COc1ccc(NC(=O)c2oc3ccccc3c2NC(=O)Cc2cccs2)cc1	-19%	i
CCOCC(=O)Nc1nc2ccc(C)cc2s1	-20%	/
N#CC(C#N)=C1C=C2C=C(N3CCCCC3)CCC2CC1 (stereo unspecified)	/	-2%
CCCCOc1ccc(CC(=O)NOC)cc1	6%	23%
Cc1ccc(-n2nc(CO)c(C(=O)NCCCc3ccccc3)n2)cc1	-9%	-4%
Cc1ccc(OC(C)C(=O)N2CCN(CCc3ccncc3)CC2)cc1C (stereo unspecified)	-4%	-12%
CCOC(=O)c1c(C)n(-c2ccccc2)c2ccc(O)c(CN(C)C)c12	?	-18%
CCCn1c2ccccc2c2nnc(SCCN3CCOCC3)nc21	-2%	15%
COc1ccc(-c2oc3cc(OC)c(O)c(OC)c3c(=O)c2OC)cc1O	?	?
Cc1ncc(CN2CCN(C3CCCC3)C(CCO)C2)s1 (stereo unspecified)	5%	?
COc1cccc(OC)c1NC(=O)CN(C)S(=O)(=O)c1ccc2c(c1)OCCO2	-6%	-16%
COc1cccc(C(=O)N2CCN(CCc3ccncc3)CC2)c1	-4%	-1%
Cc1cccc(C)c1NC(=O)CN(C)C(=O)c1cccc(NS(=O)(=O)c2ccccc2)c1	-12%	-5%
Cc1c(CCNC=O)cc(C)c2c3c(oc12)CCCC3	-16%	i
CCC(C)NC(C(=O)Nc1ccc(Cl)c([N+](=O)[O-])c1)c1ccccc1 (stereo unspecified)	-11%	-14%
CC(=O)N1CCc2c(sc3c2c(=O)n(Cc2ccccc2)c(=O)n3Cc2cccc(Cl)c2)C1	-25%	-7%
NC(=O)c1ccc(SCC(=O)NC2CCCCC2)c([N+](=O)[O-])c1	-25%	-4%
CCOc1ccc(NS(=O)(=O)c2ccc(-c3cc(C)no3)s2)cc1	-17%	-6%
CC(C)(C)CNC(=O)c1cccc2c1C(=O)c1ccc(N3CCCC3)cc1S2(=O)=O	-2%	-6%
COc1ccc(NC(=O)CNC(=O)c2cccs2)cc1Cl	-6%	-3%
CCOC(=O)COc1nc(N(C)C)nc(N(C)C)n1	?	/

Rewritten with each value named: part of the list above
> CCCn1c2ccccc2c2nnc(SCCN3CCOCC3)nc21
- VACV Venus inh = -2%
- Vaccinia mCherry = 15%
> CCCCOc1ccc(CC(=O)NOC)cc1
- VACV Venus inh = 6%
- Vaccinia mCherry = 23%

Next section.
SMILES	VACV Venus inh	Vaccinia mCherry
COc1ccc(NC(=O)[C@H](C)NC(=O)C2CCN(S(=O)(=O)c3ccc(C)cc3)CC2)cc1OC	-27%	-4%
Cn1c(NCc2cccnc2)nc2cc(-c3ccc(C(=O)N4CCOCC4)cc3)sc2c1=O	-13%	i
CCN(CC)CCNC(=O)c1cc(Nc2ccc(OC)c(OC)c2)nc2ccccc12	-17%	?
Cn1c(Cn2c(C(F)(F)F)nc3ccccc32)nc2ccccc21	-4%	/
O=C(O)CCC(=O)OCCc1cc2ccccc2c(=O)o1	-20%	i
CNC(=S)Nc1ccc(OC)c(OC)c1	-4%	i
Cn1c(SCC(=O)N(C2CCCCC2)C2CCCCC2)nnc1-c1cccs1	-23%	-31%
COc1ccc(-c2nc(CS(=O)CC(=O)NCc3ccc4c(c3)OCO4)c(C)o2)cc1OC (stereo unspecified)	0%[7.34 µM]	i[7.34 µM]
CSc1ncc(/C=C2/C(=O)NC(=O)N(c3ccc(C(C)C)cc3)C2=O)cn1	-7%	i
COc1ccc(CNC(=O)Cc2c(C(=O)O)[nH]c3ccccc23)cc1	-19%	-19%
COc1cc(/C=C2/C(=O)NN(c3ccc(F)cc3)C2=O)cc(Cl)c1O	-10%	i
CCc1ccccc1NC(=O)CNC(=O)c1ccc(S(=O)(=O)NCc2ccco2)cc1	-1%	-3%
Cc1ccc(N2CC(NC(=O)C3CC3)CC2=O)cc1C (stereo unspecified)	-16%[7.34 µM]	-7%[7.34 µM]
O=C(CSCc1ccccc1)Nc1ccc2c(c1)OCO2	-7%	-20%
COc1ccc(NC(=O)CSCc2cnn(-c3ccccc3)c2-n2cccc2)cc1	-16%	-12%
Cc1ccc(S(=O)(=O)NC(=O)NCc2ccco2)cc1	-12%	i
COCCCn1nnnc1SCC(=O)Nc1nc(C)c(C)s1	3%	-1%
O=C(CSc1nnc(C2COc3ccccc3O2)o1)N1CCOCC1 (stereo unspecified)	-20%	/
O=c1c2oc3ccccc3c2n(Cc2ccccc2Cl)c(=O)n1Cc1ccc2c(c1)OCO2	-13%	-13%
C/C=C/C1=CC(=O)C[C@H](c2ccc(Cl)cc2)C1	-17%	-19%
NS(=O)(=O)c1ccc(NC(=S)NCc2ccccc2)cc1	2%	-8%
CC(Sc1nnc2ccccn12)C(N)=O (stereo unspecified)	-13%	-1%
CCCn1c(SCC(O)c2cccc(OC)c2)nc2ccccc21 (stereo unspecified)	-9%	-11%
Cc1cc(C)nc(SCC(=O)N/N=C\C(Br)=C\c2ccccc2)n1	-18%	-11%
Cc1ccccc1-c1nc(CN2CCC(C(=O)NC(C)C)CC2)c(C)o1	0%	-11%

The results go on.
SMILES	VACV Venus inh	Vaccinia mCherry
Cc1ccc(C(OCC(O)CNC(CO)C(O)c2ccc([N+](=O)[O-])cc2)c2ccccc2)cc1 (stereo unspecified)	-28%	?
O=C(COc1ccc(Br)cc1)NCCO	-11%	i
CCN(Cc1ccccc1)C(=O)COC(=O)c1cc(Cl)nc(Cl)c1	-5%	i
CCOc1cccc(C2c3c(oc4cc(C)c(C)cc4c3=O)C(=O)N2c2nc(C)c(C)s2)c1 (stereo unspecified)	-3%	4%
COc1ccccc1NC(=O)CCN1C(=O)C2C3CCC(C3)C2C1=O (stereo unspecified)	-2%	i
COc1ccc(S(=O)(=O)Nc2ccccc2C(=O)N2CCCC2)cc1C	-1%	-9%
CCCCN1CC(=O)N2[C@H]3c4cc(Cl)ccc4OC[C@@H]3[C@H](c3ccccc3)[C@]2(C)C1=O	-12%	i
Cc1ccc(CNC(=O)c2ccccc2N)cc1	-7%	-12%
Cc1c(N(C(=O)Nc2ccccc2)C2=NCC(C)S2)c(=O)n(-c2ccccc2)n1C (stereo unspecified)	13%	/
CCC1=NN2C(=N)/C(=C\c3ccc(SCc4ccco4)o3)C(=O)N=C2S1	132%[activator]	65%[activator]
O=C(CSc1nc(=O)n(CCCN2CCOCC2)c2c1CCC2)Nc1ccccc1F	-3%	-28%
C#Cc1ccc([C@@H]2C=C(C(=O)O)O[C@H](OCCCCO)C2)cc1	-4%	-11%
COc1cc(C(CC(=O)Nc2cccc(C(C)=O)c2)N2Cc3ccccc3C2=O)cc(OC)c1OC (stereo unspecified)	-5%	-7%
CCOCCCn1c(SCC(=O)Nc2ccc3[nH]c(=O)[nH]c3c2)nc2ccccc2c1=O	-9%	-13%
Cc1cccc(C(=O)NCC(=O)OCC(=O)c2cc(C)n(CC3CCCO3)c2C)c1 (stereo unspecified)	-5%	-11%
COC(=O)c1ccc(C2CC(=O)Nc3cc(OC)c(OC)cc32)cc1 (stereo unspecified)	-7%	i
CC(C)(C)C(=O)NCCc1nc2ccccc2n1CC(=O)c1ccccc1	-10%	-1%
CCN(Cc1nc(-c2cccc(C)c2)no1)C(=O)c1ccco1	-6%	-2%
COc1ccc2c(c1)C=C(CN1CCN(C(C)C)C(CCO)C1)CO2 (stereo unspecified)	-12%	-12%
CSc1cccc(NC(=S)N(CCCN2CCC(C)CC2)Cc2cccs2)c1	-15%	-27%
C=CCN(CC=C)Cc1cc(=O)n2c(-c3ccccc3)csc2n1	2%	-20%
COc1cc(OC)nc(NC(=O)COC(=O)C2CCCCC2)n1	?	-15%
CC(C)Oc1ccc(C(=O)NC2CCCCC2)cc1	-18%	/
O=C(OCC(=O)N(Cc1ccccc1)C1CCS(=O)(=O)C1)c1cc2c(s1)CCCC2 (stereo unspecified)	-27%	-2%
CC(=O)/C(N=Nc1cc2c(c([N+](=O)[O-])c1C)C(C)(C)CC2(C)C)=C(\C)O	-14%	-13%

Brought forward from above: 6 entries, then new ones.
SMILES	VACV Venus inh	Vaccinia mCherry
CSc1cccc(NC(=S)N(CCCN2CCC(C)CC2)Cc2cccs2)c1	-15%	-27%
C=CCN(CC=C)Cc1cc(=O)n2c(-c3ccccc3)csc2n1	2%	-20%
COc1cc(OC)nc(NC(=O)COC(=O)C2CCCCC2)n1	?	-15%
CC(C)Oc1ccc(C(=O)NC2CCCCC2)cc1	-18%	/
O=C(OCC(=O)N(Cc1ccccc1)C1CCS(=O)(=O)C1)c1cc2c(s1)CCCC2 (stereo unspecified)	-27%	-2%
CC(=O)/C(N=Nc1cc2c(c([N+](=O)[O-])c1C)C(C)(C)CC2(C)C)=C(\C)O	-14%	-13%
O=C1Nc2cccnc2Sc2ccccc21	-12%	i
CC(C)Cc1ccc(CN2CCCC(NC(=O)c3ccoc3)C2)cc1 (stereo unspecified)	-24%	-10%
CCN(CC)C(=O)Cn1cc(C(=O)C(=O)N2CCN(c3ccc([N+](=O)[O-])cc3)CC2)c2ccccc21	-16%	i
O=C(O)c1cc(-c2cccc3ccccc23)nc2ccccc12	12%	-13%
CNc1ccc(/C=C\CCCO)cn1	3%	34%
CC(C)(C)n1cnc2cc(NCc3ccccc3Cl)ccc21	-9%	-9%
CCOc1ccccc1NC(=O)CCS(=O)(=O)c1cccc2nsnc12	-2%&-4%	-5%&-16%
O=C(CCN1CCOCC1)NNC(=S)NC(=O)c1ccc(Br)cc1	9%	-6%
O=C(N/N=C/c1cccn1-c1ccccc1)c1ccncc1	-6%	-11%
COc1cc(/C=C/C(=O)NCC2CCCCC2)cc(OC)c1OC	-6%	i
O=C(CN1CCN(c2ccccc2F)CC1)N1CCc2ccccc21	-11%	?
O=C(O)CCCn1cc(NC(=O)COc2ccccc2[N+](=O)[O-])cn1	-12%	i
Cc1csc(SCC(=O)N2CCCC2)n1	-13%	/
CCOC(=O)c1c(C)[nH]c(C)c1C(=O)COC(=O)c1cccc(C)c1O	-13%	-15%
N#CCCSCc1ccc(C(=O)O)o1	-3%	i
COc1ccc(Cl)cc1S(=O)(=O)N1CCN(C)CC1	-3%	0%
CCC(C(=O)NCCCc1ccccc1)c1ccccc1 (stereo unspecified)	4%	-16%
COc1ccc(C2=Nc3ccccc3N(C(=O)c3ccc(C)cc3)C2C(=O)NCc2ccccc2)cc1 (stereo unspecified)	-10%	-22%
O=C(COC(=O)COc1ccc(Cl)cc1)NC1CCCCC1	-8%	-22%
O=C1c2cc(O)c(O)cc2S(=O)(=O)C1c1ccccc1 (stereo unspecified)	10%	-10%
COc1ccc(-c2noc(CCC(=O)Nc3cc(Cl)c(OC)cc3OC)n2)cc1	?	/
NNC(=O)c1sc(-c2ccc(Cl)cc2)cc1N	-20%	?
CCOC(=O)C1=C(C)N(C)C(=S)NC1c1ccc(Cl)cc1 (stereo unspecified)	-5%	-14%
CC(=O)Nc1ccc(NC(=S)NC(=O)c2ccc([N+](=O)[O-])c(C)c2)cc1	-8%	-14%
CSCCNC(=O)c1ccc2nc(Cc3ccccc3F)oc2c1	-5%	-20%

Single records, as listed above. Order of values: VACV Venus inh | Vaccinia mCherry
COc1cc(C(CC(=O)Nc2cccc(C(C)=O)c2)N2Cc3ccccc3C2=O)cc(OC)c1OC (stereo unspecified) is listed as -5% | -7%
Cc1ccccc1-c1nc(CN2CCC(C(=O)NC(C)C)CC2)c(C)o1 is listed as 0% | -11%

(list continues)
SMILES	VACV Venus inh	Vaccinia mCherry
CN(CC(=O)Nc1cccc(F)c1)C(=O)C1CCN(S(=O)(=O)c2ccc3c(c2)OCCO3)CC1	-14%	-11%
COc1ccc(NC(=O)C(NS(=O)(=O)c2cccs2)C(C)C)cc1Cl (stereo unspecified)	-5%	i
C/C(N)=C(/C#N)C(=O)COC(=O)CNS(=O)(=O)c1ccc2ccccc2c1	-7%	-5%
CCOc1ccccc1N1CCN(C(=S)NCc2ccco2)CC1	-13%	-21%
CCOC(=O)C1=C(C)NC(c2cccs2)C(=O)N1 (stereo unspecified)	6%	i
Cc1cc(C)cc(NC(=S)NCCN2CCOCC2)c1	-13%	-22%
COc1ccc(S(=O)(=O)Nc2ccc(Cl)cn2)cc1	-7%	-16%
Cc1cccc(N2CCN(C(=O)Cn3nc(C)c4sc5ccccc5c4c3=O)CC2)c1C	-3%	-11%
O=C(NCC(c1ccc2c(c1)OCO2)N1CCN(c2ccccc2)CC1)c1ccc(F)c(F)c1 (stereo unspecified)	-18%	-15%
CCOC(=O)c1c(S(=O)(=O)Nc2ccccc2OCC)c(C)n(C)c1C	-8%	-15%
CN(c1ccc(OCC(=O)Nc2ccccc2C(=O)O)cc1)S(=O)(=O)c1ccc(Cl)cc1	-7%	i
COc1ccc(NC(=O)C2CCN(c3cnccn3)CC2)cc1Cl	-7%&-2%	-7%&1%
NC(=O)CC(O)c1cccc(Cl)c1 (stereo unspecified)	-8%	i
CCCNC(=O)NC(=O)COC(=O)c1ccc(S(=O)(=O)N(C)c2ccccc2OC)cc1	-13%	-3%
O=C(NCc1ccccn1)c1cc2ccccn2n1	-14%	i
CC(C)(C)NC(=O)C(c1ccccc1)n1c(=O)c(-c2ccco2)nc2ccccc21 (stereo unspecified)	1%	-16%
COc1ccc(-c2nn(-c3ccccc3)cc2CNCCN2CCOC2=O)c(F)c1	-7%	-29%
